Source: PubChem BioAssay
Cruzain inh noDet: qHTS Assay for Promiscuous and Specific Inhibitors of Cruzain (without detergent). AID 1476, 2009. purified cruzain, Z-FR-AMC fluorescence, no detergent. Potency, µM, for the others: max response, negative = inhibition, hits mostly inhibitors. Cruzipain (Trypanosoma cruzi), P25779. 2.3% of 200,000 active;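 further: plate controls were enzyme without inhibitor for no effect and buffer without enzyme for full effect; nearly all actives have a fitted effect of over 40% in size; top concentration of the series not given in the record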
Target sequence (P25779 123-467 limits assumed): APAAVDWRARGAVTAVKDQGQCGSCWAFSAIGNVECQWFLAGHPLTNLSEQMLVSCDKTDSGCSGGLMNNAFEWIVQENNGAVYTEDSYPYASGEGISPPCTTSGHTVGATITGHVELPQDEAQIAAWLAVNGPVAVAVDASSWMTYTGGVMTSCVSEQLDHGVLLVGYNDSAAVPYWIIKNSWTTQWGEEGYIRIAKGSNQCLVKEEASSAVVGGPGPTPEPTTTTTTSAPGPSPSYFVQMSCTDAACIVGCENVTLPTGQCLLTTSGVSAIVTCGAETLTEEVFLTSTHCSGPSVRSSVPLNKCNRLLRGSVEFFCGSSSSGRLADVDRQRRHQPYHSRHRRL
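Detergent-free condition (0.00005% Triton X-100) in acetate buffer pH 5.5 with DTT. 1.5 nM enzyme and compound were pre-mixed 15 min, then 2 uM Z-FR-AMC substrate added; reaction progress from fluorescence change between first and third reads (60 s).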
Cruzain inh Det: qHTS Assay for Promiscuous and Specific Inhibitors of Cruzain (with detergent); Potency, µM, for inactives: max response, negative = inhibition, most hits filed as inhibitors; AID 1478, 2009; Cruzipain (Trypanosoma cruzi), P25779; 0.43% of 200,000 active; purified cruzain, Z-FR-AMC fluorescence, 0.01% Triton;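 further: plate controls were neutral wells for no effect and buffer without enzyme for full effect; nearly all actives have a fitted effect of over 40% in size; top concentration of the series not given in the record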
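Compounds were screened in titration against cruzain (1.5 nM) with 0.01% Triton X-100 to counter colloidal aggregation. Activity was the AMC fluorescence increase over 60 s after adding 2 uM Z-FR-AMC at pH 5.5.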
MARV entry inh: qHTS for inhibitors of binding or entry into cells for Marburg Virus; Marburg virus pseudotyped entry inhibition, cell reporter; control for the full effect not named in the record; about a third of the inactives were read at about 46 µM; Potency, µM (doses to about 37.8 µM), for the others: at the highest dose activity change, negative = inhibition, actives largely listed as inhibitors; 1.8% of 300,000 active; AID 540276, 2011; active = well fitted inhibition curve with a large enough effect; inconclusive = small, poorly fitted or top-dose-only effect, or effect the other way; inactive = flat fitted curve, though single readings scatter; tested in HEK293 cells; about a fifth of its hits are not listed in these tables; further: on the % scale 0 is the no-effect control and ±100 the full control effect; luciferase read-out
SARS PLpro yeast: qHTS of Yeast-based Assay for SARS-CoV PLP | S. cerevisiae expressing SARS-CoV PLpro, growth rescue; control for the full effect not named in the record | Potency, µM (doses to about 32.9 µM), without a hit: at the highest dose activity, positive = growth rescue | 0.19% of 330,000 active | AID 485353, 2010; active means well fitted rising curve with a large enough effect; inconclusive means small, poorly fitted or top-dose-only effect; inactive means no such curve, though single readings can be large or run the other way; further: 0% is about no effect; nearly all actives have a fitted effect of over 55% in size; growth read by luminescence after 48 h
RE007 growth inh: qHTS Assay for Inhibitors of the HIV-1 protein Vpr; S. pombe RE007 Vpr strain, BacTiter-Glo ATP luminescence, 24 h; control for the full effect not named in the record; Potency, µM (highest dose often 92.2 µM), for inactives: top-dose activity change, negative = less growth; 0.21% of 360,000 active; AID 651644, 2012; active = well fitted falling curve with a large enough effect; inconclusive = small, poorly fitted or top-dose-only effect; inactive = no such curve, though single readings can be large or run the other way;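 further: on the % scale 0 is the no-effect control and ±100 the full control effect; nearly all actives have a fitted effect of over 50% in size; the assay follows cell death caused by Vpr and the record does not say whether a fall means rescue or toxicity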
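Fission yeast RE007 carrying one integrated HIV-1 vpr copy, seeded at OD 0.01 in PMG+AL medium with 23 nL pinned compound. Grown 24 h at 30 degrees; viability read by BacTiter-Glo luminescence after 5 min.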
StopGo reporter: High Throughput Screening for Foot and Mouth Disease Virus Antivirals; human cells with a luciferase reporter of 2A StopGo recoding; control for the full effect not named in the record; Potency, µM (doses to about 57.9 µM), inactives show at the top dose signal change, negative = less light; 1.2% of 410,000 active; AID 1159524, 2015; active = well fitted falling curve with a large enough effect; inconclusive = small, poorly fitted or top-dose-only effect; inactive = no such curve, though single readings can be large or run the other way; tested in HEK293T cells; further: on the % scale 0 is the no-effect control and ±100 the full control effect; nearly all actives have a fitted effect of over 45% in size; luciferase light after 4 h
NS1 inh: qHTS Assay for Inhibitors of Influenza NS1 Protein Function; S. cerevisiae slowed by influenza A NS1, growth recovery by OD600; Potency, µM (series often up to 46.1 µM), without a hit: at the highest dose activity, positive = more growth; 0.4% of 270,000 active; AID 2326, 2010; active means well fitted rising curve with a large enough effect; inconclusive means small, poorly fitted or top-dose-only effect; inactive means no such curve, though single readings can be large or run the other way; further: nearly all actives have a fitted effect of over 50% in size
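A cell-based growth assay was used: compounds that relieve NS1-induced slow growth of budding yeast raise OD600. Assay medium was yeast nitrogen base with ammonium sulphate and -URA supplement, pH 6.0, with 2% galactose.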
LASV entry inh: qHTS for Inhibitors of binding or entry into cells for Lassa Virus | Lassa virus pseudotype entry inhibition, cell reporter; control for the full effect not named in the record | Potency, µM (titrated, usually from 37.9 µM), for inactives: at the highest dose activity change, negative = inhibition, usual class: inhibitors | 1.2% of 300,000 active; active means well fitted inhibition curve with a large enough effect; inconclusive means small, poorly fitted or top-dose-only effect, or effect the other way; inactive means flat fitted curve, though single readings scatter; tested in HEK293 cells; further: on the % scale 0 is the no-effect control and ±100 the full control effect; nearly all actives have a fitted effect of over 50% in size; luciferase read-out
The depositor's hits bear a star; ? = inconclusive; / = no result given; & = joins results of further samples; [ ] = another dose, or the depositor's remark. Unless noted, the call rests on the fitted dose curve; in most records, active means well fitted curve in the direction sought with a large enough effect; inconclusive means small, poorly fitted or top-dose-only effect, or another doubt; inactive means no such curve, though single readings can be large; an effect the other way counts as inactive or inconclusive. Potency means the concentration at half of the fitted maximal effect.

The line under a structure holds: Cruzain inh noDet	Cruzain inh Det	MARV entry inh	SARS PLpro yeast	RE007 growth inh	StopGo reporter	NS1 inh	LASV entry inh
Cc1cccc(NC2CNC(=O)NC2=O)c1 (stereo not given)
→ /	/	-11.1%[46.1 µM]	/	11.0%	1.4%	/	15.7%[46.1 µM]
O=C1/C(=C/c2cccnc2)SC(=S)N1c1ccc(F)cc1
→ 3.9%	-10.7%	4.3%	-12.9%	-11.7%	0.0%	16.0%	8.7%
COc1ccc(OCCCC(=O)Nc2cc([N+](=O)[O-])ccc2C)cc1
→ 6.6%	-1.6%	9.6%	2.5%	0.3%	-1.8%	-3.6%	5.3%
CC(C)c1nnc(NC(=O)Cc2ccc(Br)cc2)s1
→ ?	-2.5%	-7.7%	9.1%	7.8%	-17.4%	2.4%	?
COc1ccc(OC)c(/C=N\NC(=O)CSc2nnc(CCCc3ccc(OC)c(C)c3)o2)c1
→ 16.8%	-5.1%	-4.9%	/	0.1%	?	-2.6%	-19.8%
CC1(C)CC(CCC(=O)NC(=S)Nc2ccccc2Cl)C(=O)O1 (stereo not given)
→ /	/	/	-0.3%	19.1%	4.7%	-10.9%	/
CCOc1ccc(NS(=O)(=O)c2cc(NC(=O)CCNC(=O)c3ccco3)ccc2OC)cc1
→ /	/	?	/	-7.7%	34.4%[activator]	/	-0.4%
O=S(=O)(Nc1ccc(O)c(NS(=O)(=O)c2ccccc2)c1)c1ccccc1
→ /	/	/	-4.1%	-1.1%	-10.2%	15.7%	/
CN(CC(=O)Nc1ccc(F)cc1[N+](=O)[O-])Cc1ccccc1
→ /	/	-4.9%[46.1 µM]	2.1%	4.3%	1.9%	-7.2%	-27.2%
CCOC(=O)c1c(NC(=O)c2cc(-c3cccc(OC)c3)on2)sc2c1CCCC2
→ -10.0%	-1.9%	-16.0%[46.1 µM]	/	/	-11.6%	/	8.1%[46.1 µM]
COc1ccccc1CN1CCN(C(=O)Cc2ccccc2)CC1
→ 5.2%	4.3%	-6.3%	5.5%	2.2%	3.2%	0.8%	-22.4%
CC(=O)O[C@@H]1[C@H](OC(=O)CC(C)C)c2c(ccc3ccc(=O)oc23)OC1(C)C
→ -0.5%	-3.4%	-17.8%	-15.1%	3.4%	-26.2%	-28.1%	-18.4%
CS(=O)(=O)N(CC(=O)NCCSCc1ccccc1)c1cc(C(F)(F)F)ccc1Cl
→ 14.4%	-6.3%	?	/	/	16.1%	/	-19.6%[46.1 µM]
Cc1nc(SCC(=O)Nc2ccccc2C)cc(-c2ccccc2)n1
→ -2.1%	-1.1%	20.6%[46.1 µM]	/	/	-14.7%	/	-8.6%[46.1 µM]
Fc1ccc(Nc2c(-c3ccccn3)nc3ccc(Cl)cn23)cc1
→ -4.4%	1.6%	-1.0%[46.1 µM]	/	/	-23.4%	/	9.8%[46.1 µM]
N#CC1=C(N)Oc2c(c(=O)oc3ccccc23)C1c1ccccc1OC(=O)c1cccs1 (stereo not given)
→ -9.2%	-2.1%	?	2.4%	1.3%	?	1.2%	?
O=C(Cc1cccs1)N1CCN=C1SCc1cccc(F)c1
→ /	/	/	0.5%	-3.9%	-8.2%	-2.6%	/
Cc1ccc(/C=N/Nc2ccc(F)cc2)s1
→ /	/	?	8.3%	24.5%	14.2%	-2.4%	-27.9%[46.1 µM]
Cc1c(C(=O)OCCOc2ccccc2)[nH]c2c1C(=O)CC(c1ccccc1)C2 (stereo not given)
→ 17.4%	-3.0%	/	/	/	-18.8%	/	-23.3%[46.1 µM]
Cc1nn(C)cc1CN(C)C(=O)c1ccc(OC2CCN(Cc3ccccn3)CC2)cc1
→ /	/	/	0.3%	-0.9%	-21.8%	-4.6%	/
N/C(=N\c1nc2ccccc2o1)NC(=O)c1cccc(Cl)c1
→ /	/	0.8%[46.1 µM]	0.1%	3.6%	23.9%	1.5%	15.3%
COc1cc(N)c(Cl)cc1C(=O)NC1CCN(Cc2ccccc2)CC1
→ -7.8%&-4.2%	-1.3%&0.4%	/	/	-13.0%	-2.0%&-15.6%	/	/
O=C(CCC(=O)c1cccs1)OCC(=O)c1ccc(Cl)s1
→ -6.9%	-7.7%	-3.8%	1.2%	?	-9.1%	-13.1%	-2.2%
COC(=O)c1cc(C(=O)c2c(C)cc3ccccn23)cc([N+](=O)[O-])c1
→ /	/	?	-12.0%	-10.8%	18.5%	-55.6%	?
O=C(O)CCSCC(=O)Nc1c(C(=O)C2CC2)oc2ccccc12
→ -16.1%	-2.7%	18.1%[46.1 µM]	-2.6%	5.7%	-1.6%	0.6%	7.4%
COc1cc2c(cc1OC)C1(Nc3c-2c(C)nn3-c2ccccc2)C(=O)Nc2ccccc21 (stereo not given)
→ ?	-3.8%	-3.5%&-3.5%	8.7%	-4.0%	-19.5%	7.5%	?
O=C(COc1ccccc1)Nc1ccc(C(=O)OCc2cc(=O)n3nc(C4CC4)sc3n2)cc1
→ 5.7%	1.6%	/	/	/	-10.0%	/	?
Cc1ccc(-n2nc(C(N)=O)nc2-c2ccccc2)cc1
→ /	/	/	7.2%	4.1%	-1.3%	5.0%	/
O=C(NC1CCCc2ccccc21)C1CCN(S(=O)(=O)c2cnc[nH]2)CC1 (stereo not given)
→ -3.3%	-3.6%	-6.1%	4.7%	0.0%	23.5%	2.9%	0.2%
Cc1ccc(NS(=O)(=O)c2ccc(-c3ccc(=O)[nH]n3)o2)cc1N(C)C
→ /	/	3.9%[46.1 µM]	4.0%	-8.5%	3.9%	4.6%	4.3%[46.1 µM]
COC(=O)Cn1c(C)c(C#N)c2ccccc21
→ 5.8%	-2.1%	-1.6%[46.1 µM]	12.0%	-14.8%	-0.2%	26.0%	6.2%
Cc1nnc2n1N=CC=C(c1ccccc1)S2
→ 3.1%	-2.8%	?	-3.3%	11.7%[3.69 µM]	?	-73.7%	?
COc1ccc(NC(=O)COC(=O)c2cc(OC)c(OC)c(OC)c2)c([N+](=O)[O-])c1
→ /	/	/	-0.3%	-1.7%	-7.0%	5.6%	/
CC(C)C(NC(=O)c1cccnc1)C(=O)O (stereo not given)
→ /	/	0.7%[46.1 µM]	20.1%	-8.3%	-3.3%	-1.2%	1.7%
CC1CCC2(CC1)NC(=O)N(NC(=O)CCc1c[nH]c3ccccc13)C2=O (stereo not given)
→ /	/	5.0%	-0.6%	-9.6%	-22.6%	/	2.7%[46.1 µM]
O=C(CC1SC(=Nc2ccccc2)N(CCCCO)C1=O)NCc1ccccc1 (stereo not given)
→ 27.2%	-1.4%	1.3%	-2.1%	1.7%	21.8%	-9.3%	-10.4%
C/C(=N/NC(=O)c1ccncc1)c1cc2ccc(O)cc2oc1=O
→ 3.6%	-6.2%	-7.6%	?	0.7%	-11.0%	1.2%	-0.9%
Oc1c(Cl)cc(Cl)cc1/C=N/NC(=S)NC1CC2C=CC1C2 (stereo not given)
→ /	/	?	-3.8%	17.7%	-24.2%	15.7%	?
CC[C@H](NC(=O)c1c(C)c(-c2ccccc2)nc2ccccc12)c1ccccc1
→ 12.4%&17.4%	-4.6%&-1.0%	?	-0.8%	10.7%	-25.1%&-14.8%	-6.2%&-2.0%	?
N#CC1(NC(=O)CSc2nc3ccccc3s2)CCCCC1
→ /	/	?	-2.7%	7.9%	17.0%	/	16.3%
COc1ccc2oc(C(=O)OCC(=O)N3CCCCC3)c(C)c2c1
→ /	/	20.5%[46.1 µM]	-0.5%	-13.2%	/	/	?
CCN(C(=O)COC(=O)c1oc2ccc(OC)cc2c1C)C1CCS(=O)(=O)C1 (stereo not given)
→ /	/	1.2%	2.2%	4.8%	6.6%	/	-11.1%
CCC(C)/C(C)=N/Nc1ccc(S(N)(=O)=O)cc1[N+](=O)[O-] (stereo not given)
→ /	/	-24.5%[46.1 µM]	-3.2%	11.2%	?	/	/
CCN(C(=O)CSc1nnc(-c2ccc3c(c2)OCO3)o1)C1CCS(=O)(=O)C1 (stereo not given)
→ /	/	-0.7%	-3.5%	-12.4%	0.6%	/	5.1%
CCCSc1nc(-c2ccc(OC)cc2)cc(-c2ccccc2OC)c1C#N
→ -4.5%	1.6%	/	/	/	-11.9%	/	-13.2%[46.1 µM]
NC(=O)NOCc1ccccc1
→ /	/	1.6%[14.2 µM]	2.7%	-1.1%	-7.2%	1.2%	21.6%
CCN(CC(=O)Nc1c(F)cccc1F)C(=O)C1CCN(C(=O)c2ccc(F)cc2)CC1
→ /	/	13.7%	-6.0%	0.0%	-6.0%	/	11.6%
CCOc1ccc(NCc2nc3ccccc3n2CCOc2ccc(C)cc2)cc1
→ -9.4%	-8.5%	-5.0%[46.1 µM]	/	/	-15.3%	/	-13.7%[46.1 µM]
Cc1cc(Cl)ccc1NC(=S)NC1CCCC1
→ /	/	-8.0%	20.0%	-16.4%	60.3%[activator]	-11.0%	?
CCN(Cc1ccncc1)Cc1ccc(OC)c(OC)c1
→ /	/	/	5.8%	3.2%	0.0%	-3.9%	/
Cc1cccc(NC(=O)CCNS(=O)(=O)c2ccc(Cl)cc2)c1
→ /	/	-1.1%[46.1 µM]	-2.2%	-4.4%	39.3%[activator]	-0.2%	/
Oc1ccc(CNc2ccccc2O)cc1
→ -0.3%	-8.2%	?	-43.2%	?	11.0%	-131.2%	?
CCCC(=O)N(c1ccc2oc3c(c2c1)CCCC3)S(=O)(=O)c1ccc(CC)cc1
→ -26.8%	-4.9%	?	/	/	-13.6%	/	?
